VDR inhibitor: blocks the human vitamin D receptor; P11473; VDR-SRC2-3 peptide fluorescence polarization, 2 h; Potency, µM, inactives show max response, negative = inhibition, usual class: inhibitors; actives 0.93% (n = 400,000); AID 504847; active = well fitted inhibition curve with a large enough effect; inconclusive = small, poorly fitted or top-dose-only effect, or another doubt; inactive = no such curve, though single readings can be large or run the other way; also: series mostly up to about 120 µM
Target sequence (P11473 whole entry, looked up): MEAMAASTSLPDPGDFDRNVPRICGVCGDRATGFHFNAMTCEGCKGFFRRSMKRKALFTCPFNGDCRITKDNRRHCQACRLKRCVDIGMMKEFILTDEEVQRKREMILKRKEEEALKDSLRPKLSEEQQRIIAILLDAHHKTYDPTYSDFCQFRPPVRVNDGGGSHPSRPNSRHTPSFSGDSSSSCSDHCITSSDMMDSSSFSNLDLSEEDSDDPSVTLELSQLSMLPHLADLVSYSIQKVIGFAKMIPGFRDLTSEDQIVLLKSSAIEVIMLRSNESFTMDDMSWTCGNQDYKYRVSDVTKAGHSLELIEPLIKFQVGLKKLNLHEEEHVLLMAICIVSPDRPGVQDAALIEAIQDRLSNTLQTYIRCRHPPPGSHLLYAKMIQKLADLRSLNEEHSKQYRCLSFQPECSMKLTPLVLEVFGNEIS
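Signal is fluorescence polarization, reporting how far test compounds block the interaction of VDR with the SRC2-3 coregulator peptide after a 2 h room-temperature incubation.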
Active calls of the source: *; ? = inconclusive; & = joins results of further samples. % is scaled to controls: 0 for no effect and ±100 for the full control effect; potency is read from the fitted curve at half-maximal effect. An excerpt, so the mix of outcomes need not match the whole.

VDR inhibitor	smiles
-8.6%	COc1cc(/C=C/C(=O)OCC(=O)c2c[nH]c3ccccc23)ccc1OC(F)F
-11.1%	CCOC(=O)Cn1c(=O)oc2cc(S(=O)(=O)N3CCC(C(=O)OCC)CC3)ccc21
9.1%	CCC1CCCCN1CCCNC(=O)c1ccc2nc(N3CCC(C)CC3)sc2c1 (stereo not given)
-23.7%	CC(=O)c1ccc(NC(=O)c2ccc3c(c2)N(Cc2cccc(Cl)c2)C(=O)c2ccccc2S3(=O)=O)cc1
9.1%	Cc1ccc(CNCCC2=CCCCC2)cc1
13.8%	O=C(Nc1ccccc1)C1CCCN1S(=O)(=O)c1ccc(Br)cc1 (stereo not given)
6.3%	CCCC1=Nc2cc(C(=O)NCCc3ccccc3)ccc2Sc2ccc(C)cc21
-12.6%	COC(=O)[C@@H]1C[C@@]2(O)[C@H](O)[C@H](O)[C@H](O)C[C@H]2N1Cc1ccc(C)s1
13.8%	O=C(O)c1c2c(nc3ccccc13)-c1ccccc1CC2
4.6%	O=C(Nc1ccccc1O)c1cccc(S(=O)(=O)Nc2ccccc2O)c1
1.1%	COc1ccc(N=C2SC(CC(=O)Nc3ccccc3)C(=O)N2Cc2ccco2)cc1 (stereo not given)
-5.5%	O=C(O)C1C2C=CC(C2)C1C(=O)Nc1ccccc1Br (stereo not given)
6.2%	COc1ccc(Cl)cc1NS(=O)(=O)c1cn(C)nc1C
13.6%	CC(CNC(=O)c1cc(COc2c(F)cccc2F)on1)c1ccccc1 (stereo not given)
?	CN1CC=C2C(C#N)=C(N)C(C#N)(C#N)[C@H](c3ccoc3)[C@H]2C1
-8.7%	CC(C)(C)c1cc(C(=O)NN)n(Cc2ccc(Cl)cc2Cl)n1
-8.8%&19.0%	Cc1ccc(-n2ncc3c(Nc4cccc(C(=O)O)c4)ncnc32)cc1
-1.8%	O=C(CN(c1ccc(F)cc1)S(=O)(=O)c1ccccc1)NC1CC2CCC1C2 (stereo not given)
?	O=P(Cc1cc[n+]([O-])cc1)(c1ccccc1)c1ccccc1
-0.1%	COc1ccc2c(C(=O)NCCCCO)c(-c3ccc(S(C)(=O)=O)cc3)sc2c1

Among those listed so far, 8 have a halogen.
VDR inhibitor	smiles
-8.6%	COc1cc(/C=C/C(=O)OCC(=O)c2c[nH]c3ccccc23)ccc1OC(F)F
-23.7%	CC(=O)c1ccc(NC(=O)c2ccc3c(c2)N(Cc2cccc(Cl)c2)C(=O)c2ccccc2S3(=O)=O)cc1
13.8%	O=C(Nc1ccccc1)C1CCCN1S(=O)(=O)c1ccc(Br)cc1 (stereo not given)
-5.5%	O=C(O)C1C2C=CC(C2)C1C(=O)Nc1ccccc1Br (stereo not given)
6.2%	COc1ccc(Cl)cc1NS(=O)(=O)c1cn(C)nc1C
13.6%	CC(CNC(=O)c1cc(COc2c(F)cccc2F)on1)c1ccccc1 (stereo not given)
-8.7%	CC(C)(C)c1cc(C(=O)NN)n(Cc2ccc(Cl)cc2Cl)n1
-1.8%	O=C(CN(c1ccc(F)cc1)S(=O)(=O)c1ccccc1)NC1CC2CCC1C2 (stereo not given)

Additional entries:
VDR inhibitor	smiles
14.1%	COC(=O)c1ccc(N2C(=O)CC(SCCN)C2=O)cc1 (stereo not given)
-17.9%	NC(=O)CC(NC(=O)Cc1ccc(Br)cc1)c1ccc(N2CCCCCCC2)c([N+](=O)[O-])c1 (stereo not given)
-19.9%	COCCCNS(=O)(=O)c1ccc(SC)cc1
15.6%	Cc1ccc(C(=O)c2cn(Cc3ccccc3F)c3cc4c(cc3c2=O)OCCO4)cc1
6.1%	COc1ccc(C)cc1N1CC(C(=O)OCc2nc(N)nc(Nc3ccccc3C)n2)CC1=O (stereo not given)
-6.9%	S=C(NCC1CCCO1)NC1CC1 (stereo not given)
?	COc1ccc(CC(=O)Nc2ccc(-c3cn4ccc(C)cc4n3)cc2)cc1
-6.4%	O=C(Nc1ccc2c(c1)OCCO2)C1CCCN1S(=O)(=O)c1cccc2cccnc12 (stereo not given)
-1.9%	Cc1ccc(S(=O)(=O)N2CCN(C(=O)c3sccc3C)CC2)cc1
?	Cc1ccccc1-c1cc(N(C)C)ncn1
4.3%	Fc1ccc(CSc2nnc(-c3ccncc3)o2)cc1
11.4%	CN(CC(=O)Nc1ccc(F)cc1)C(=O)CCc1ccccc1
12.7%	COC(=O)C1CN(C(=O)COc2ccccc2)c2ccccc2O1 (stereo not given)
-8.5%	Cc1ccc(NC(=O)c2cc(-c3cccs3)nc3ccccc23)c(C)c1
2.0%	CCN(CCCNC(=O)CN1C(=O)COc2ccc(S(=O)(=O)N3CCC(C)CC3)cc21)Cc1ccccc1
16.9%	CCOC(=O)C1(CC2CC2)CCN(S(=O)(=O)C[C@]23CC[C@H](CC2=O)C3(C)C)CC1
-5.9%	CN1CCCN(S(=O)(=O)c2ccc(Cl)c(Cl)c2)CC1
-1.3%	S=c1[nH]nc(-c2ccc3ccccc3n2)n1-c1ccc2ncccc2c1
9.1%	CN(C)c1cccc(C(=O)NN2C(=O)NC3(CCCCC3)C2=O)c1
11.4%	O=C(CCN1C(=O)/C(=C\c2ccc(F)cc2)SC1=S)Nc1ccccc1

Ordered by SMILES length (lowest first): 3 of the compounds above
VDR inhibitor	smiles
14.1%	COC(=O)c1ccc(N2C(=O)CC(SCCN)C2=O)cc1 (stereo not given)
12.7%	COC(=O)C1CN(C(=O)COc2ccccc2)c2ccccc2O1 (stereo not given)
6.1%	COc1ccc(C)cc1N1CC(C(=O)OCc2nc(N)nc(Nc3ccccc3C)n2)CC1=O (stereo not given)

Continuation:
VDR inhibitor	smiles
-11.2%	COc1ccc(CNC(=O)COC(=O)c2ccc(Br)c(S(=O)(=O)N3CCOCC3)c2)cc1
-1.7%	COc1ccc(S(=O)(=O)N2CCOCC2)cc1NC(=O)c1cc(C)oc1C
-6.2%	CCOC(=O)c1cccc(NC(=O)c2cc3c(=O)n(Cc4cccnc4)ccc3nc2C)c1
?	C[n+]1ccc(/C=C/c2ccc3ccccc3c2)cc1
-6.8%	Cc1cc(N)c(NC2=CC(=O)CC(C)(C)C2)cc1C
-10.8%	O=C(NCC1CCCO1)c1ccc(COCC(F)(F)C(F)F)cc1 (stereo not given)
-20.8%	COc1ccc(-n2c(SC)nnc2-c2c[nH]c3ccccc23)cc1
15.7%	O=S(=O)(c1ccc(Br)cc1)N1CCCC1c1nc2ccccc2s1 (stereo not given)
9.4%	CCN(C(=O)COC(=O)CNS(=O)(=O)c1ccc2ccccc2c1)C1CCCCC1
16.2%	COc1ccc(N2CCN(C(CNS(=O)(=O)c3ccc(C)cc3)c3ccccc3)CC2)cc1 (stereo not given)
3.0%	CC(=O)N1Cc2ccccc2CC1C(=O)NCc1ccccc1F (stereo not given)
0.1%	COc1ccc(N2CCN(Cc3nc4c(c(=O)n(C)c(=O)n4C)n3CCc3ccccc3)CC2)cc1
12.2%	COC(=O)c1ccc(Cn2cc([N+](=O)[O-])cn2)cc1
-8.3%	CCN(CC)c1ccc(/C=N/NC(=O)c2cc(C)nc3ccccc23)cc1
1.1%	COc1cccc(CS(=O)(=O)c2nnnn2CC(C)C)c1
7.8%	Cc1nc(N2CCCC2)c2c(C(=O)Nc3ccc(C)c(Cl)c3)c(C)oc2n1
8.6%	C=CCn1c(=O)c2ccccc2n2c(=S)[nH]nc12
-10.6%	Cc1ccc(CN2CCC(NC(=O)c3ccccc3)CC2)cc1
12.8%	CCC(=O)C1=C(c2cccc(OC)c2)N(C(=O)CC)n2c(nnc2C2CCCCC2)S1
0.5%	Cc1cc(O)c(N)c(C)c1Cl
2.4%	CC(=O)c1c(C)[nH]c(C(=O)OCc2cccc(Cl)c2)c1C
-1.2%	NS(=O)(=O)c1ccc(NC(=S)N2CCN(Cc3ccc4c(c3)OCO4)CC2)cc1
?	COc1c(O)cccc1[C@@H](O)C1CCN(CCc2ccc(F)cc2)CC1
-3.3%	CCOC(=O)c1ccc(NS(=O)(=O)c2cc(-c3onc(C)c3C)ccc2C)cc1
4.9%	CCOc1ccc(CCNC(=O)Cn2ncc3c(=O)oc4ccc(C)cc4c32)cc1
-2.8%	O=C(Nc1sc2c(c1C(=O)NCc1ccco1)CCCC2)c1ccc2c(c1)OCO2
3.2%	Cc1noc(C)c1NC(=O)N(C)C[C@@H]1Oc2ccc(NC(=O)C3CCCCC3)cc2C(=O)N([C@@H](C)CO)C[C@H]1C
-15.6%	COc1ccccc1CNc1cc(-c2cccnc2)ncn1
?	COc1ccc(S(=O)(=O)Nc2cc3c(C(C)=O)c(C)oc3c3ccccc23)cc1
1.5%	CC1CCCC(NC(=O)COC(=O)COc2ccccc2Cl)C1C (stereo not given)
-5.0%	CCN1CCN(CC(=O)Nc2ccc(OC(F)(F)F)cc2)CC1
-28.6%	CC(C)c1nnc(NC(=O)C2CCCO2)s1 (stereo not given)
-14.6%	CCn1c(SCC(=O)c2ccc3c(c2)OCCO3)nnc1C(C)C
-16.5%	CCN(Cc1ccccc1)c1ccc(/C=N/N=C(N)N)cc1
9.1%	COc1ccc2c(c1)CCc1c(C(=O)NCCN3CCOCC3)noc1-2
5.3%	CCNS(=O)(=O)c1ccc(NC(=O)CSc2nc(-c3ccco3)cc(C(F)(F)F)n2)cc1
-1.7%	COc1cccc(OCc2nc3c4cnn(-c5ccccc5)c4ncn3n2)c1
4.7%	CCc1ccc(N(CC(=O)Nc2ccccc2C(=O)N2CCOCC2)S(C)(=O)=O)cc1
-3.4%	COC(=O)c1sc(OC)cc1OCc1ccc(C)cc1
35.5µM*	COc1cccc(-c2nccc(N(C)Cc3ccco3)n2)c1
9.0%	C[C@@]12CCc3occc3[C@H]1CC[C@]13CC(=O)[C@@H](CC[C@H]12)C3
-8.6%	O=C(Nc1ccccn1)c1ccc2ccccc2c1O
7.2%	C/C(=N\N=C\c1ccccc1)c1nnn(-c2nonc2N)c1C
3.5%	CCN1CCN(C(=O)c2cc3cc(Cl)ccc3[nH]2)CC1
5.4%	COc1ccc(OC)c2[nH]c(=O)c(CCNS(=O)(=O)c3ccccc3)cc12
1.5%	CC(=O)Nc1ccc(C)cc1-c1nc2ccccc2n(CC(=O)c2ccc(C)c(C)c2)c1=O
3.5%	CC(=O)c1ccc(NC(=O)c2cccs2)cc1
11.5%	O=C(CCc1nc2sc3c(c2c(=O)[nH]1)CCCC3)NCCc1ccc(F)cc1
-17.4%	CCCNC(=S)NCc1ccc(Cl)cc1
3.6%	Cc1cc(C)nc(N2CCCC(C(=O)NCc3ccccc3)C2)n1 (stereo not given)
12.5%	COc1cc2nc(SCc3ccc(F)cc3)n(Cc3cccs3)c(=N)c2cc1OC
12.5%	COc1ccc(-c2cc(C(F)(F)F)n3nc(C(=O)Nc4ccccc4SC)cc3n2)cc1OC
-2.3%	CCN1C(=O)CC(N2CCN(c3ccc(Cl)cc3)CC2)C1=O (stereo not given)
9.4%	COc1cc(C(=O)OCC(=O)N2CCOCC2)c([N+](=O)[O-])cc1OC
-12.3%	COc1ccc(Nc2nnc(-c3ccc(C(N)=O)cc3)c3ccccc23)cc1
-10.9%	COc1ccc(NC(=O)CN(C)C(=O)CCCNC(=O)c2ccc(Cl)cc2)cc1
3.8%	COc1ccc(N2CCN(S(=O)(=O)c3ccc4c(c3)CCCN4C(C)=O)CC2)cc1
7.8%	CC(Oc1ccc(Cl)cc1Cl)C(=O)NNC(=O)c1ccncc1 (stereo not given)
6.8%	O=S(=O)(c1ccc(-c2cc(C(F)(F)F)on2)s1)N1CCN(c2ccccc2F)CC1
-24.9%	O=C(O)COc1ccccc1/C=N/Nc1ccc(S(=O)(=O)Nc2ccc(Cl)cc2)cc1[N+](=O)[O-]

(continued)
VDR inhibitor	smiles
-18.6%	O=C(c1ccc2c(c1)OCCO2)N1CCN(Cc2ccccc2)CC1
70.8µM*	S=C(NNC(=S)Nc1ccccc1)Nc1ccccc1
1.8%	CC(C)Cn1c(=O)c2ccccc2n2c(SCC(=O)N3c4ccccc4CC3C)nnc12 (stereo not given)
1.6%	COc1ccc2nc(Nc3nc(CSc4nnnn4-c4ccccc4)cc(=O)[nH]3)nc(C)c2c1
-11.8%	CC(OC(=O)c1cc2sccc2n1C)C(=O)NCc1ccc(F)cc1 (stereo not given)
20.0%	O=C1CCCC2=C1C(c1ccsc1)CC(=O)N2c1ccccc1F (stereo not given)
-8.2%	Cc1ccc(F)c(Oc2cc(NN3CCCCC3)c([N+](=O)[O-])cc2[N+](=O)[O-])c1
1.7%	COc1ccc(NC(=O)CSc2nc(N)c3cc4c(nc3n2)CCCC4)c(OC)c1
16.6%	Cc1csc2sc(-c3ccnc(SCC(=O)NCc4ccccc4)n3)c(C)c12
10.5%	Cc1nc(NC(=S)NC(=O)c2ccco2)sc1C(=O)N(C)C
0.6%	CN(C(=O)c1coc(=O)c2ccccc12)c1ccccc1Cl
11.2%	CCOC(=O)c1ccccc1NC(=O)N(Cc1ccc(CC)cc1)Cc1cn[nH]c1-c1ccc(OC)cc1
-11.9%	CCCCOc1ccc(N=Cc2cccs2)cc1
-8.9%	CCCCN(C)CCNC(=O)c1cc2c(=O)n(C)c3ccccc3c2n1C
-11.8%	Cc1cc2c(cc1C)/C(=C\C(N)=O)NC(C)(C)C2
8.0%	O=C(NCc1ccccc1)C1COc2ccccc2O1 (stereo not given)
-7.7%	Cc1[nH]c2ccccc2c1/C=N/Nc1nncn1N
-20.7%	CC(=O)N(C)c1ccc(NC(=S)Nc2ccccc2)cc1
5.0%	COCCCN1CC(=O)N2C(c3ccc(OC)c(OC)c3)c3[nH]c4ccccc4c3C[C@H]2C1=O (stereo not given in full)
-3.3%	O=C(COC(=O)c1cc(-c2ccccc2)nc2c(Cl)cccc12)c1ccc(F)cc1
-20.4%	Cc1cccc(CN2C(=O)c3ccccc3S(=O)(=O)c3ccc(C(=O)NC4CCCCC4)cc32)c1

VDR inhibitor, what is marked active above
VDR inhibitor	smiles
35.5µM*	COc1cccc(-c2nccc(N(C)Cc3ccco3)n2)c1
70.8µM*	S=C(NNC(=S)Nc1ccccc1)Nc1ccccc1

Compound activity from PubChem.
